Screens as filed in PubChem BioAssay.
Vif TR-FRET – inhibitors of Vif binding to APOBEC3G peptide, primary screen, biochemical, TR-FRET, GST-Vif 1-94, biotin-A3G peptide, dose response retest (AID 1117319); TR-FRET GST-Vif / biotin-A3G peptide binding; higher % means a stronger effect; test concentration not given here; strong numbers were not always called active; 260,000 tested, 0.57% active; inhibition, %, or IC50 in µM where a hit was titrated;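 active = above the screen mean plus three standard deviations and confirmed in dose response; inconclusive = results disagree or hit not tested in dose response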;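 note: Vif residues 1-94 fused to GST binding biotinylated APOBEC3G peptide 110-148; 0% = full assay without inhibitor and 100% = GST in place of GST-Vif; retest series ran down from 100 µM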
Beta2AR agonist – human beta-2 adrenergic receptor agonism by FAP; 340,000 tested, 0.43% active; P07550; response, % (no concentration beside the values); Am2.2-beta2AR cells, FAP receptor internalization, flow cytometry; reference of the scale not given here;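 active = response above a set limit, near 3 SD of response in nonfluorescent compounds, cut at about 42% in these data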;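 note: stock transfer was 100 nL into about 11 µL; a reference agonist was the positive control; negative values mostly stem from fluorescent compounds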
Ecoli growth – blocks Escherichia coli growth. OD600, 23 h; active compounds read low. OD600 absorbance (test concentration not listed). 330,000 tested, 0.21% active. AID 1053175;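 active = OD600 absorbance below the run mean of sample wells minus 3.6 SD, in any replicate, cut at about 0.56 in these data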;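 note: stock transfer was 300 nL into about 60 µL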
Bfl-1 A1 inh – inhibitors of the anti-apoptotic protein A1, read as caspase activation | MEF A1-2A-BIM cells, Caspase-Glo 3/7 luminescence, 3 h; percent of clofoctol response, vehicle zero | caspase activation, % (test concentration not listed) | 330,000 tested, 0.066% active;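 active = over half of replicate activation scores above 10%, or exactly half above 10 with the replicate mean above 10; inconclusive = replicate mean below 10 yet half the replicates above 10; inactive = over half of replicates below 10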;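 note: wells of about 30 µL received 50 nL stock; many hits fall short of the cut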
UCH37 inh – inhibitors of human deubiquitinating enzyme UCH37; purified proteasome/UCH37, Ub-AMC cleavage fluorescence; 330,000 tested, 0.33% active; inhibition, % (no concentration beside the values); Q9Y5K5;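 active = mean of two replicates above 20%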;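 note: 0% = compound-free wells with enzyme and 100% = wells lacking proteasome; stock transfer was 100 nL into about 20 µL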
Target sequence (Q9Y5K5 whole entry, looked up): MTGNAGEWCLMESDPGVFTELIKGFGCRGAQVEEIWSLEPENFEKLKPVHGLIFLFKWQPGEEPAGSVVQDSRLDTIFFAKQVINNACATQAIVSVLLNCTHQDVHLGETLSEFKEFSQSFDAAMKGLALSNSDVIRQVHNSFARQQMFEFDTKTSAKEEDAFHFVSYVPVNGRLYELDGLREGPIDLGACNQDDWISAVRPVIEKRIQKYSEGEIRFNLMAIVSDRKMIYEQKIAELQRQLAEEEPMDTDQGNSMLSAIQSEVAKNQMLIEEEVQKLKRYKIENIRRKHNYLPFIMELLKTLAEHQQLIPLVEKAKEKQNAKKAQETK
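System: Proteasome-associated human UCH37 deubiquitinase; Input: 0.15 nM proteasome in added enzyme buffer; Also added: Ub-AMC substrate from 1 µM stock; Incubation: 30 min compound-proteasome preincubation then 25 min substrate reaction, room temperature; Detection: fluorescence, ex 355 nm, em 460 nm; Read-out: % inhibition of Ub-AMC cleavage fluorescence; Benchmarks: no-proteasome and no-compound wells.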
LANA-H2B inh – blocks KSHV LANA binding to histone H2A/H2B. Q9QR71. cell-free LANA-H2A/H2B peptide, fluorescence polarization. inhibition, % (test concentration not listed). 320,000 tested, 0.6% active. AID 2629; in the data active = inhibition mostly above about 10%, no sharp cut-off; inactive = mostly below about 6.7%;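 note: stock transfer was 7.5 nL into about 10 µL; 0% = median of vehicle wells and 100% = median of positive control wells; one replicate is shown; the record names a cut of 25% in any replicate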
HNF4A DNA FP – change in binding of human HNF4 alpha to DNA; 360,000 tested, 0.3% active; HNF4a-FITC DNA binding, fluorescence polarization, 1 h; activity change, % at 10 µM; in the data active = activity change above about 30%, passing the limit was not always enough;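 note: controls were the assay level and a saturating level of protein; the project sought stronger binding though the title names inhibitors; some compounds called inactive have numbers as strong as hits; positive values seem to mean higher polarization but the record does not say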
Target sequence (P41235 whole entry, looked up): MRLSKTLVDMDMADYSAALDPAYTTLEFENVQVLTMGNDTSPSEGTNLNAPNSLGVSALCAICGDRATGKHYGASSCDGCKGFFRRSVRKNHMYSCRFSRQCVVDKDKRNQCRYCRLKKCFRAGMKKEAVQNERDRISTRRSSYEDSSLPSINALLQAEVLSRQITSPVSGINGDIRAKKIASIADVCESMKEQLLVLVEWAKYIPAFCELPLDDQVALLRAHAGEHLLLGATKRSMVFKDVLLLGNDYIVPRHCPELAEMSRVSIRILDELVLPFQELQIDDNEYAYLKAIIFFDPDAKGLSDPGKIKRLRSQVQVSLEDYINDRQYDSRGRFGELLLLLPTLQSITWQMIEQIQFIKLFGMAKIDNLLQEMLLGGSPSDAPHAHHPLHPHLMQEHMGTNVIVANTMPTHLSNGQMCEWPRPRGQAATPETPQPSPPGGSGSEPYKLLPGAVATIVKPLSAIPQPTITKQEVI
The depositor's hits bear a star; ? = inconclusive; . = no result given.

Every second line gives: Vif TR-FRET | Beta2AR agonist | Ecoli growth | Bfl-1 A1 inh | UCH37 inh | LANA-H2B inh | HNF4A DNA FP
CCOc1ccc2oc(C(=O)NCc3nc4ccccc4[nH]3)c(C)c2c1
 : -4.9% | -7.6 | 0.716 | -0.4 | -14.8 | 2.9 | 2.1
CCOC(=O)C(Nc1ccc2ccccc2c1)C(=O)OCC
 : . | 5.9 | 0.698 | 0.1 | -1.4 | -5.8 | -0.3
CC(CCc1ccccc1)NC(=O)C(=O)c1c[nH]c2ccccc12 (stereo not given)
 : . | 3.0 | 0.663 | 1.0 | 4.0 | 4.3 | -3.1
CC(=O)Nc1ccc(S(=O)(=O)NC2(C(F)(F)F)NC(=O)N(CC(C)C)C2=O)cc1 (stereo not given)
 : ? | 3.0 | 0.702 | -0.6 | 4.3 | 0.8 | 2.8
CC(C)c1ccc(NC2CCCN(C(=O)c3cccc(N4CCNC4=O)c3)C2)cc1 (stereo not given)
 : 1.6% | -6.7 | 0.667 | -1.1 | 2.1 | 2.3 | 4.8
COc1cccc(CNC(=O)CN2C(=O)CC(c3ccccc3)=Nc3ccccc32)c1
 : . | -4.0 | 0.703 | 0.6 | 0.3 | 1.8 | -4.4
O=C1C(Cl)=C(NCc2ccco2)C(=O)c2ccccc21
 : 1.9% | 1.5 | 0.644 | . | 6.4 | . | -2.6
CC(C)CNC(=O)NC(=O)CSc1nc2ccccc2n1CC(C)C
 : -0.2% | -6.3 | 0.703 | -0.5 | 1.1 | -4.2 | -1.0
COc1ccc2nc(/N=C(\N)NC(=O)C(C)(C)C)nc(C)c2c1
 : 3.0% | 4.6 | . | -0.3 | . | -0.9 | -0.3
COC(=O)[C@H](Cc1ccccc1)NC(=O)NCc1ccc(S(N)(=O)=O)cc1
 : 1.2% | 3.6 | 0.656 | -0.2 | 1.7 | 0.5 | -3.2
COc1ccccc1C1/C(=C(\O)c2ccc3c(c2)OCCO3)C(=O)C(=O)N1CCCn1ccnc1 (stereo not given)
 : . | -2.1 | 0.651 | -0.3 | 42.4* | -4.1 | -2.5
COc1cccc(C(=O)CC(=O)C(=O)Nc2cccc([N+](=O)[O-])c2C)c1
 : 2.7% | 24.2 | 0.684 | 0.1 | 7.1 | -0.8 | -3.8
CN(C)CCCNc1nc(N)c([N+](=O)[O-])c(NCCO)n1
 : 12.6% | -1.7 | 0.705 | 0.2 | 17.0 | -9.1 | 0.1
CC(=O)Nc1ccc(S(=O)(=O)Nc2ccccn2)cc1
 : 21.6% | 12.6 | 0.749 | -0.3 | -2.3 | 0.8 | -2.3
N#CC(c1cccc(Cl)c1)c1ccc2c(C(F)(F)F)cc(C(F)(F)F)nc2n1 (stereo not given)
 : 18.0% | 24.3 | 0.718 | -0.8 | 3.9 | . | -0.6
O=C(Cn1cnc(S(=O)(=O)N2CCCC2)c1)Nc1cccc(F)c1
 : 1.5% | 3.5 | 0.682 | -0.2 | 4.9 | -0.3 | 4.9
O=C(NCc1cccnc1)c1cccc(S(=O)(=O)N2CCCC2)c1
 : 29.6% | 4.8 | 0.677 | -0.5 | 5.9 | 2.6 | -2.8
COc1cccc(N(C(=O)Cn2nnc(-c3ccc(C)o3)n2)C(C(=O)NC2CCCC2)c2ccncc2)c1 (stereo not given)
 : -7.8% | 4.4 | 0.657 | 1.5 | -1.0 | 1.4 | 2.3
COc1ccc(S(=O)(=O)N[C@@H](Cc2ccc(Cl)cc2)C(=O)N2CC[C@@]3(O)CCCC[C@H]3C2)cc1
 : 10.6% | 7.7 | . | 0.0 | -0.4 | -4.2 | -1.0
Cc1ccc(CNS(=O)(=O)c2cccc3nsnc23)cc1
 : 11.2% | -0.6 | 0.656 | 0.3 | -0.1 | 1.6 | 1.4
O=C(CSc1nnc(-c2ccncc2)o1)Nc1ccc(F)c(F)c1
 : -1.0% | -0.5 | 0.639 | 21.4* | 2.7 | -4.2 | -0.1
Cc1ccc(CNC(=O)Cc2cccs2)cc1
 : 7.7% | 2.2 | 0.724 | 0.3 | 5.0 | 1.9 | -0.4
COc1ccc([N+](=O)[O-])cc1NCC(=O)Nc1cc(S(=O)(=O)N2CCCCC2)ccc1C
 : 0.8% | 0.1 | 0.72 | 0.3 | 2.5 | -0.8 | 1.8
O=C(Nc1cccc(NC(=O)c2ccc(F)cc2)c1)c1ccc(F)cc1
 : -1.7% | 4.3 | 0.678 | 0.0 | 3.5 | -0.2 | -4.1
Cc1ccccc1-n1c(C)nnc1SCC(=O)N1CC(=O)Nc2ccccc21
 : 6.7% | 1.1 | 0.67 | 0.9 | 1.5 | 1.3 | 0.9
CC1=NN(c2ccc(C)cc2C)C(=O)C1C(c1ccccc1)C1C(=O)N(c2ccc(C)cc2C)N=C1C (stereo not given)
 : 4.5% | 9.9 | 0.709 | -0.7 | 0.1 | -4.5 | 0.7
COc1ccc(/C=C/C(=O)NC(=S)NNC(=O)c2cccnc2)cc1OC
 : 5.6% | 9.2 | 0.673 | 0.5 | 10.2 | -9.4 | 3.2
C[C@@]12CCC=C[C@H]1[C@H](c1ccc3ccccc3c1Br)N(Cc1ccccc1)C2=O
 : 4.7% | 4.7 | . | -0.3 | 1.3 | 3.6 | 5.0
FC(F)(F)c1cnc(COc2ccc(Cl)cc2Cl)c(Cl)c1
 : 6.4% | -2.6 | 0.701 | ? | 6.3 | -6.0 | 5.8
CCC(=O)N1CCc2cc(S(=O)(=O)N3CCN(c4ccccc4Cl)CC3)ccc21
 : -5.3% | -2.8 | 0.66 | -0.1 | 5.5 | 3.7 | -0.4
Cc1cc(NC(=O)c2cc(C)on2)no1
 : -7.2% | -3.3 | 0.724 | 0.5 | -1.9 | -5.4 | 0.1
Cc1ccc(NC(=O)CSc2nnc3ccc(-c4cccnc4)nn23)cc1
 : 5.0% | -6.8 | 0.607 | 0.0 | 2.0 | 2.9 | 4.1
Cc1ccc(S(=O)(=O)N(C(=N)N)c2nc(N(C)C)nc(N(C)C)n2)cc1
 : . | -2.3 | . | 0.4 | . | 1.5 | 1.0
O=C1Nc2cc(Cl)c(Cl)cc2N(O)N1c1ccccc1
 : 3.7% | 3.2 | 0.604 | 0.8 | 0.8 | 3.6 | -2.3
Cc1ccc(C(=O)NNC(=O)c2ccc(NS(=O)(=O)c3cccs3)cc2)o1
 : 10.2% | 0.4 | . | 0.9 | . | 1.0 | -7.9
C=CCNCCOc1ccc(C(C)(C)c2ccccc2)cc1
 : 9.6% | -3.2 | 0.626 | 0.6 | 1.3 | 5.5 | 2.0

5 entries drawn at random from the list so far, as already listed:
Every second line gives: Vif TR-FRET | Beta2AR agonist | Ecoli growth | Bfl-1 A1 inh | UCH37 inh | LANA-H2B inh | HNF4A DNA FP
FC(F)(F)c1cnc(COc2ccc(Cl)cc2Cl)c(Cl)c1
 : 6.4% | -2.6 | 0.701 | ? | 6.3 | -6.0 | 5.8
Cc1ccc(NC(=O)CSc2nnc3ccc(-c4cccnc4)nn23)cc1
 : 5.0% | -6.8 | 0.607 | 0.0 | 2.0 | 2.9 | 4.1
CC1=NN(c2ccc(C)cc2C)C(=O)C1C(c1ccccc1)C1C(=O)N(c2ccc(C)cc2C)N=C1C (stereo not given)
 : 4.5% | 9.9 | 0.709 | -0.7 | 0.1 | -4.5 | 0.7
COc1ccc([N+](=O)[O-])cc1NCC(=O)Nc1cc(S(=O)(=O)N2CCCCC2)ccc1C
 : 0.8% | 0.1 | 0.72 | 0.3 | 2.5 | -0.8 | 1.8
O=C1Nc2cc(Cl)c(Cl)cc2N(O)N1c1ccccc1
 : 3.7% | 3.2 | 0.604 | 0.8 | 0.8 | 3.6 | -2.3
